Bioassay records (PubChem)
StopGo reporter: High Throughput Screening for Foot and Mouth Disease Virus Antivirals; human cells with a luciferase reporter of 2A StopGo recoding; control for the full effect not named in the record; Potency, µM (highest dose often 57.9 µM), for the others: top-dose signal change, negative = less light; actives 1.2% (n = 410,000); AID 1159524, 2015; active = well fitted falling curve with a large enough effect; inconclusive = small, poorly fitted or top-dose-only effect; inactive = no such curve, though single readings can be large or run the other way; tested in HEK293T cells; also: % is scaled to controls: 0 for no effect and ±100 for the full control effect; nearly all actives have a fitted effect of over 45% in size; luciferase light after 4 h
NS1 inh: qHTS Assay for Inhibitors of Influenza NS1 Protein Function. S. cerevisiae slowed by influenza A NS1, growth recovery by OD600. Potency, µM (top dose mostly 46.1 µM), for the others: at the highest dose activity, positive = more growth. actives 0.4% (n = 270,000); active means well fitted rising curve with a large enough effect; inconclusive means small, poorly fitted or top-dose-only effect; inactive means no such curve, though single readings can be large or run the other way; also: nearly all actives have a fitted effect of over 50% in size
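Compounds were scored for reversing the slow growth caused by influenza A NS1 in S. cerevisiae, measured by optical density at 600 nm. Assay medium contained 2% galactose at pH 6.0; NS1-free yeast of the same strain were the positive control.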
Cruzain Triton: qHTS Assay for Promiscuous and Specific Inhibitors of Cruzain (with detergent); purified cruzain, Z-FR-AMC fluorescence, 0.01% Triton; AID 1478, 2009; Potency, µM, inactives show max response, negative = inhibition, usual class: inhibitors; actives 0.43% (n = 200,000);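 also: plate controls were neutral wells for no effect and buffer without enzyme for full effect; nearly all actives have a fitted effect of over 40% in size; top concentration of the series not given in the record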
Target sequence (P25779 123-467 limits assumed): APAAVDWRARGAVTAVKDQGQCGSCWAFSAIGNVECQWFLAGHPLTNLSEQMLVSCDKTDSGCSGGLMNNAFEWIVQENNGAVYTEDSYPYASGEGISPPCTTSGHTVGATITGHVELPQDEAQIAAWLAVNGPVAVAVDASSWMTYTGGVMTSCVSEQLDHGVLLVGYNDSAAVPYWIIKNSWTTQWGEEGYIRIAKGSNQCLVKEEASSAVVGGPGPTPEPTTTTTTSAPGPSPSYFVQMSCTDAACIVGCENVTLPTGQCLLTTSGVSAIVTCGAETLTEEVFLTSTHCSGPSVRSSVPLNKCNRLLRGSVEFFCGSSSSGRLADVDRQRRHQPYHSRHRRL
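Detergent-containing run (0.01% Triton X-100) in acetate buffer pH 5.5 with 5 mM DTT: enzyme at 1.5 nM final, 15 min compound preincubation at room temperature, then 2 uM Z-FR-AMC substrate. Activity taken as 60 s fluorescence increase at 360/450 nm.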
Cruzain noTriton: qHTS Assay for Promiscuous and Specific Inhibitors of Cruzain (without detergent) | Cruzipain (Trypanosoma cruzi), P25779 | purified cruzain, Z-FR-AMC fluorescence, no detergent | Potency, µM, without a hit: max response, negative = inhibition, most hits filed as inhibitors | actives 2.3% (n = 200,000) | AID 1476, 2009;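 also: plate controls were enzyme without inhibitor for no effect and buffer without enzyme for full effect; nearly all actives have a fitted effect of over 40% in size; top concentration of the series not given in the record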
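Purified cruzain at 1.5 nM, pre-incubated 15 min with compound at room temperature in 100 mM sodium acetate pH 5.5, 5 mM DTT, 0.00005% Triton X-100. Reaction started with 2 uM Z-FR-AMC; AMC fluorescence increase over 60 s gives rate.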
RE007 growth inh: qHTS Assay for Inhibitors of the HIV-1 protein Vpr; S. pombe RE007 Vpr strain, BacTiter-Glo ATP luminescence, 24 h; control for the full effect not named in the record; Potency, µM (top dose mostly 92.2 µM), inactives show at the highest dose activity change, negative = less growth; actives 0.21% (n = 360,000); AID 651644, 2012; active = well fitted falling curve with a large enough effect; inconclusive = small, poorly fitted or top-dose-only effect; inactive = no such curve, though single readings can be large or run the other way;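 also: % is scaled to controls: 0 for no effect and ±100 for the full control effect; nearly all actives have a fitted effect of over 50% in size; the assay follows cell death caused by Vpr and the record does not say whether a fall means rescue or toxicity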
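Fission yeast strain RE007, carrying one chromosomally integrated HIV-1 vpr copy, was seeded at OD 0.01 in PMG+AL medium with 23 nL pinned compound. After 24 h at 30 °C and 99% humidity, viability was read by BacTiter-Glo luminescence.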
MARV entry inh: qHTS for inhibitors of binding or entry into cells for Marburg Virus; actives 1.8% (n = 300,000); AID 540276, 2011; Potency, µM (series often up to 37.8 µM), without a hit: at the highest dose activity change, negative = inhibition, hits mostly inhibitors; Marburg virus pseudotyped entry inhibition, cell reporter; control for the full effect not named in the record; about a third of the inactives were read at about 46 µM; active = well fitted inhibition curve with a large enough effect; inconclusive = small, poorly fitted or top-dose-only effect, or effect the other way; inactive = flat fitted curve, though single readings scatter; tested in HEK293 cells; about a fifth of its hits are not listed in these tables; also: % is scaled to controls: 0 for no effect and ±100 for the full control effect; luciferase read-out
SARS PLpro yeast: qHTS of Yeast-based Assay for SARS-CoV PLP | S. cerevisiae expressing SARS-CoV PLpro, growth rescue; control for the full effect not named in the record | AID 485353, 2010 | Potency, µM (highest dose often 32.9 µM), for inactives: top-dose activity, positive = growth rescue | actives 0.19% (n = 330,000); active means well fitted rising curve with a large enough effect; inconclusive means small, poorly fitted or top-dose-only effect; inactive means no such curve, though single readings can be large or run the other way; also: 0% is about no effect; nearly all actives have a fitted effect of over 55% in size; growth read by luminescence after 48 h
LASV entry inh: qHTS for Inhibitors of binding or entry into cells for Lassa Virus; Lassa virus pseudotype entry inhibition, cell reporter; control for the full effect not named in the record; Potency, µM (series often up to 37.9 µM), inactives show at the highest dose activity change, negative = inhibition, usual class: inhibitors; actives 1.2% (n = 300,000); AID 540256, 2011; active means well fitted inhibition curve with a large enough effect; inconclusive means small, poorly fitted or top-dose-only effect, or effect the other way; inactive means flat fitted curve, though single readings scatter; tested in HEK293 cells; also: % is scaled to controls: 0 for no effect and ±100 for the full control effect; nearly all actives have a fitted effect of over 50% in size; luciferase read-out
* = called active by the depositor; ? = inconclusive; nt = no result given; [ ] = remark or other dose. Unless noted, calls follow the shape of the dose curve; as a rule, active = well fitted curve in the direction sought with a large enough effect; inconclusive = small, poorly fitted or top-dose-only effect, or another doubt; inactive = no such curve, though single readings can be large; an effect the other way counts as inactive or inconclusive. Potency is read from the fitted curve at half-maximal effect.

compound,SARS PLpro yeast,MARV entry inh,Cruzain noTriton,Cruzain Triton,NS1 inh,RE007 growth inh,LASV entry inh,StopGo reporter
CCSc1oc(-c2cccs2)nc1S(=O)(=O)c1ccc(Br)cc1,nt,-16.0%[46.1 µM],-11.5%,-9.3%,nt,nt,?,15.9%
Cn1cnnc1SCC(=O)Nc1ccc(F)cc1F,-0.9%,5.0%,nt,nt,2.0%,-0.5%,11.1%,5.9%
Cc1ccc(C(C)(O)CS(=O)(=O)Cc2ccccc2)cc1 (stereo not given),0.1%,21.5%[46.1 µM],nt,nt,-1.3%,9.9%,-16.0%[46.1 µM],10.7%
CCOC(=O)C1=C(C)NC(=NC)SC1c1ccccc1 (stereo not given),-0.7%,0.8%[46.1 µM],nt,nt,-0.1%,2.0%,15.2%,-9.6%
Cc1ncoc1C(=O)N1CCCC(C(=O)c2cccc3ccccc23)C1 (stereo not given),-2.8%,nt,nt,nt,-6.3%,1.0%,nt,2.3%
COc1ccc(CCNC(=O)CCc2cn(Cc3ccc(C)cc3)c3ccccc23)c(OC)c1OC,nt,nt,?,-6.1%,nt,nt,-22.7%[46.1 µM],-2.4%
Cc1ccc(-c2noc(C3CCCN(C(=O)c4ccc(Cl)cc4)C3)n2)o1 (stereo not given),-5.4%,?,nt,nt,-16.8%,3.4%,?,1.5%
Cc1nn2c(-n3ccnc3C)c3c(nc2c1-c1ccccc1)CCC3,-9.0%,?,6.6%,2.0%,-0.8%,6.4%,?,-26.0%
CCOc1ccc(N2Nc3n[nH]c(N)c3N2)cc1,0.5%,0.7%,-29.0%,-9.0%,15.8%,2.1%,?,26.8%
CCc1ccc(CNC(=O)c2ccc(OC)c(OC3CCN(C(C)C)CC3)c2)nc1,-3.2%,-26.3%,nt,nt,13.7%,-9.7%,28.2%,-22.9%
CN1CCN(c2ccc(NC(=O)c3cccc(OCc4ccccc4)c3)cc2)CC1,-5.0%,22.4µM*,-12.4%,0.1%,-13.4%,-7.9%,-17.1%,6.6%
Cc1cccc(OCC(=O)NCC2(N3CCN(C)CC3)CCCCC2)c1,nt,?,-9.3%,1.7%,nt,nt,10.6%[46.1 µM],-3.9%
COc1cc(/C=N/Nc2ccc(C)cc2)cc(Br)c1O,-0.2%,?,nt,nt,nt,-2.4%,nt,18.6%
O=S(=O)(NC(=S)NC1CCCCC1)c1ccc(Br)cc1,-0.9%,7.5%[46.1 µM],nt,nt,nt,?,8.0%,9.9%
COc1ccc2cc(Br)ccc2c1CC(=O)NC(C)(C)C,-15.7%,?,-7.1%,0.1%,-12.6%,1.0%,?,-21.4%
Cc1ccccc1C(=O)Nc1nc(-c2cccnc2)cs1,0.2%,nt,nt,nt,5.0%,20.9%,nt,9.7%
COc1ccc(C(=O)COC(=O)CCN2C(=O)C3CC=CCC3C2=O)c(OC)c1 (stereo not given),-3.2%,?,nt,nt,nt,-15.4%,0.0%[46.1 µM],4.9%
COCCCNC(=S)NNC(=S)Nc1ccc(F)cc1F,6.2%,20.7%,1.5%,0.4%,-13.8%,-0.8%,2.8%,112.8%[activator]
O=C(O)c1ccc(NC(=O)c2ccc(Cl)cc2)c(NC(=O)c2ccc(Cl)cc2)c1,-9.0%,-10.8%,nt,nt,?,-1.8%,?,-1.6%
CC1=C(C(=O)Nc2cccc(C(=O)N3CCN(c4cccc(C(F)(F)F)c4)CC3)c2)SCCO1,-11.4%,nt,nt,nt,-16.4%,2.6%,nt,?
Cc1cc(C)n2nc(C(=O)Oc3ccc4c(c3)OCO4)nc2n1,?,5.2%,-3.2%,2.3%,-19.6%,4.6%,-15.5%,9.7%
CN(Cc1ccccc1)C(=O)c1ccccc1Br,7.4%,?,8.2%,-0.6%,-4.1%,-1.1%,?,3.0%
c1ccc2c(c1)CCN(c1nc3cc4c(cc3s1)OCO4)C2,-15.3%,6.0%,-25.0%,-2.3%,-30.6%,-11.2%,?,-38.5%
Cc1c(C=O)c2ccccc2n1CCOc1ccccc1,-8.9%,nt,nt,nt,-20.2%,-13.5%,nt,-27.7%

The last four compounds of the section above lead into the next.
compound,SARS PLpro yeast,MARV entry inh,Cruzain noTriton,Cruzain Triton,NS1 inh,RE007 growth inh,LASV entry inh,StopGo reporter
Cc1cc(C)n2nc(C(=O)Oc3ccc4c(c3)OCO4)nc2n1,?,5.2%,-3.2%,2.3%,-19.6%,4.6%,-15.5%,9.7%
CN(Cc1ccccc1)C(=O)c1ccccc1Br,7.4%,?,8.2%,-0.6%,-4.1%,-1.1%,?,3.0%
c1ccc2c(c1)CCN(c1nc3cc4c(cc3s1)OCO4)C2,-15.3%,6.0%,-25.0%,-2.3%,-30.6%,-11.2%,?,-38.5%
Cc1c(C=O)c2ccccc2n1CCOc1ccccc1,-8.9%,nt,nt,nt,-20.2%,-13.5%,nt,-27.7%
CCCNC(=O)c1onc(CSc2cccc(OC)c2)c1C(=O)NCCC,-3.7%,nt,nt,nt,-22.5%,-13.0%,nt,-15.7%
Cc1cccc(C)c1NC(=O)C(C)c1ccc(-c2ccccc2)c(F)c1 (stereo not given),nt,?,-14.9%,-1.7%,-10.8%,0.4%,?,?
CC(C)CCNC(=O)CN(Cc1ccc2c(c1)OCO2)C(=O)Cn1nnc(-c2cccs2)n1,-3.3%,-12.1%,-0.2%,-1.0%,-61.0%,11.8%,-17.2%,nt
O=C1CC(C(=O)Nc2cccc(F)c2)n2c(nc3ccccc32)N1 (stereo not given),3.9%,-3.1%[46.1 µM],nt,nt,2.1%,8.8%,-0.8%,2.1%
CCCOC(=O)c1c(-c2ccc(OC)cc2)oc2ccc(-c3ccc(OC)nc3)cc12,-3.0%,nt,nt,nt,9.0%,-14.7%,nt,-3.0%
CC(=O)N1CCc2cc(CNS(=O)(=O)c3ccc(Cl)s3)ccc21,nt,nt,-7.3%,-0.7%,nt,nt,?,19.8%
O=C1C[C@H]2CCCCC(=O)N3CC[C@@H](C1)[C@@H]23,-14.6%,nt,-4.7%,-1.2%,nt,114.7%,nt,-21.2%
Cc1ccc(NC(=O)CN(C)S(=O)(=O)c2ccc3nc(C)sc3c2)c(C)c1,nt,-20.3%[46.1 µM],6.8%,1.3%,nt,nt,-6.0%[46.1 µM],19.1%
O=C(CSc1ccccc1C(=O)O)NCc1ccco1,9.6%,-1.0%,6.1%,2.5%,-3.5%,6.4%,13.1%,21.1%
COc1ccccc1Cn1c(C2CC(=O)N(c3ccccc3OC)C2)nc2ccccc21 (stereo not given),nt,-5.1%[46.1 µM],-10.6%,-2.8%,nt,nt,-13.5%[46.1 µM],?
O=C(c1ccccc1)N1CCN(c2nc3ccc([N+](=O)[O-])cc3s2)CC1,0.8%,nt,nt,nt,-0.1%,-12.7%,nt,?
COc1ccccc1/C=C(/CC(=O)NCc1ccc2c(c1)OCO2)c1nc2ccccc2s1,9.2%,?,15.8µM*,-4.0%,1.6%,-12.6%,-0.9%,5.3%
COc1ccc(/C=N/Nc2ncnc3c2[nH]c2ccccc23)c(OC)c1OC,2.1%,?,-18.0%,-4.0%,19.8%,9.5%,7.7%,-16.0%
CCC(CC)C(=O)N1N=C(c2ccc(NS(C)(=O)=O)cc2)CC1c1ccccc1 (stereo not given),1.0%,nt,nt,nt,-0.2%,7.7%,nt,-5.6%
COc1cc2c3c(c1)C(C)CC(C)(C)N3C(=O)C2=O (stereo not given),-3.6%,-1.7%[46.1 µM],nt,nt,-4.4%,6.2%,-6.2%,22.9%
CCN(CC)CCCN(Cc1cc2cc(OC)c(OC)cc2[nH]c1=O)C(=O)Nc1ccccc1,1.6%,-16.3%,-1.8%,-0.5%,3.4%,-2.6%,11.0%,1.1%
CCOC(=O)C1CCCN(c2nc3ccccc3nc2C(C#N)C(=O)OC(C)C)C1 (stereo not given),2.7%,?,-0.6%,-9.2%,1.3%,9.2%,-3.7%,?
NC1=NC(=O)C2(COC(c3cccc([N+](=O)[O-])c3)OC2)S1 (stereo not given),-1.5%,8.1%[46.1 µM],nt,nt,nt,-15.4%,-3.3%,-5.5%
COc1ccc(-c2nc(N)nc(C(F)(F)F)c2-c2ccccc2OC)c(O)c1,0.2%,nt,nt,nt,-15.1%,-2.5%,nt,-15.4%
COc1ccc(N2CCN(C(=O)C3CCN(S(=O)(=O)c4cccc5nonc45)CC3)CC2)cc1,nt,nt,?,-2.6%,nt,nt,4.3%[46.1 µM],0.0%
CC(=O)c1ccc(NC(=O)COc2ccc3c(c2)OCO3)cc1,-5.0%,16.3%[46.1 µM],nt,nt,nt,7.4%,9.2%,30.9%[activator]
CCOC(=O)c1ccc(S(=O)(=O)NNC(=O)COc2cccc(C)c2)cc1,-13.7%,24.4%,0.4%,0.0%,-8.4%,13.7%,?,7.5%
Cc1ccc(CNC(=O)CCc2nnc3n(C)c(=O)c4sccc4n23)cc1,nt,11.5%[46.1 µM],0.1%,-0.9%,nt,nt,21.9%[46.1 µM],-6.3%
COC(=O)C(O)(c1ccc(N(C)C(=O)c2ccc(Cl)c(Cl)c2)cc1)C(F)(F)F (stereo not given),19.1%,-15.5%,-1.6%,-3.2%,-10.2%,11.7%,-14.7%,?
